Source: PubChem (Broad Institute)
Beta cell apopt: blocks beta cell apoptosis. INS-1E cytokine-induced death, ATP luminescence, 48 h; percent of positive-control rescue, neutral wells zero. protection from apoptosis, % (concentration not given with the values). actives 0.8% (n = 300,000);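 active = all replicates at 75% or more, or half of them and the mean; inconclusive = half reach 75% but not the mean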;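 note: 0% = cytokine-treated negative control wells and 100% = positive control rescue; higher means more ATP so stronger rescue from cytokine killing; wells of about 40 µL received 100 nL stock; the first replicate is given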
Calb FLC: affects C. albicans growth with fluconazole; C. albicans CaCi-2 (fluconazole-resistant clinical isolate) + fluconazole, Alamar Blue growth, 48 h; growth inhibition, % (concentration not given with the values); actives 0.57% (n = 300,000);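 active = most replicates above 75%; inconclusive = exactly half above 75%; inactive = most below 75%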;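 note: all wells also contain fluconazole at 8 µg/ml as a sub-toxic cotreatment; 0% = median of DMSO wells and 100% = median of geldanamycin control wells; wells of about 8 µL received 7.5 nL stock; the first replicate is given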
T cruzi repl: T. cruzi replication inhibition | actives 1.4% (n = 300,000) | inhibition, % (test concentration not listed) | T. cruzi beta-gal in NIH3T3, luminescence, 90 h;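 active = mean inhibition across valid replicates above about 55%, limit read from the data; inconclusive = mean below that limit but half or more replicates reach it; inactive = mean below it, under half of replicates reach it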;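 note: signal also drops with host cell toxicity which is not excluded here; 0% = plate median of DMSO wells and 100% = zero luminescence signal; higher percent means less beta-gal luminescence so fewer parasites; stock transfer was 50 nL into about 50 µL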
RanGTP-Impb inh: inhibitors of RanGTP-importin-beta interaction, primary screen, biochemical, FRET, CFP-Ran, YFP-importin-beta, homogeneous; inhibition, % (concentration not given with the values); actives 1.1% (n = 300,000); cell-free CFP-Ran/YFP-importin-beta FRET ratio; AID 2216;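 active = most replicates above 15%; inconclusive = exactly half above 15%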;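 note: 0% = DMSO wells and 100% = Ran loaded with GDP instead of GTP; wells of about 40 µL received 100 nL stock; the first replicate is given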
rRNA inh HTS: inhibits bacterial ribosomal RNA function over humanized ribosomes; E. coli WT GFP vs humanized-ribosome RFP mutants, fluorescence, 24 h; hits give low values; DMSO median 0, no signal -100; GFP signal change (wild-type ribosome), % (concentration not given with the values); actives 1.6% (n = 350,000); AID 720706;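 active = significant combined selectivity score with lowered wild-type GFP, culture density cut under 30%, mutant RFP and density less affected; inactive = any of these conditions unmet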; note: one replicate is shown; some compounds called inactive have numbers as strong as hits
FGF22 binding: shifts melting point of recombinant human FGF22; Q9HCT0; recombinant FGF22 thermal shift, SYPRO orange fluorescence; percent of sucrose octasulfate shift, DMSO zero; calls only at 9.99 µM; actives 1.5% (n = 340,000);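 active = melting point raised past a set limit in the mean and every replicate; inconclusive = no clear call; three in four hits are not shown here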
Target sequence (Q9HCT0 whole entry, looked up): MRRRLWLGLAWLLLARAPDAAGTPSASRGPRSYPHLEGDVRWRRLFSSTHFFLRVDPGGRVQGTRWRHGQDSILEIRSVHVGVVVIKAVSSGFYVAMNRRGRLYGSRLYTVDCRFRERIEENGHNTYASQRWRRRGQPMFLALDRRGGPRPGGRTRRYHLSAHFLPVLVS
AF4-AF9 inh: blocks AF4 peptide binding to human AF9; inhibition, % at 10 µM; actives 0.47% (n = 350,000); P42568; AlphaScreen, biotin-AF4 peptide binding to FLAG-AF9;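 active = every replicate reaching a set inhibition limit, whatever the replicate mean, cut at about 25% in these data; inconclusive = mean inhibition reaches that limit but some replicates miss it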;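 note: 0% = plate neutral control median and 100% = total signal loss; the record names both 10 and 1 µM as test concentration; the first replicate is given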
Target sequence (P42568 whole entry, looked up): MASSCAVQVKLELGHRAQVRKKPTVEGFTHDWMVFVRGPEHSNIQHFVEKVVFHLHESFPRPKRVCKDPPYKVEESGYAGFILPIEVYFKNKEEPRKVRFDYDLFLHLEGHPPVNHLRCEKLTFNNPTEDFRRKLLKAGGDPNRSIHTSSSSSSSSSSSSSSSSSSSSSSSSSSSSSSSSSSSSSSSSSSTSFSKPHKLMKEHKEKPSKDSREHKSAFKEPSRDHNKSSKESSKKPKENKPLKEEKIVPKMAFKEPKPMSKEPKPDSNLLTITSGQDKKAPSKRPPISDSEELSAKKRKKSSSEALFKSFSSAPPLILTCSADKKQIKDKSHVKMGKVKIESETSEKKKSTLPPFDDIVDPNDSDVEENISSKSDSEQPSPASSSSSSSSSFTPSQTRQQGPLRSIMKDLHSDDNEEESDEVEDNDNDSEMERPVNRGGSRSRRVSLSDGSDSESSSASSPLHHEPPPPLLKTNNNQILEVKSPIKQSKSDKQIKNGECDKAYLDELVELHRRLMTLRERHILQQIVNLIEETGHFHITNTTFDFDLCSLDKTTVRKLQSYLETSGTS
ALR H2O2 inh: inhibitors of human sulfhydryl oxidase ALR. P55789. purified ALR, DTT oxidation, H2O2 HRP-luminol luminescence. inhibition, % (no concentration beside the values). actives 3.8% (n = 290,000);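 active = mean and each replicate at 75% or more; inconclusive = only one of the two met; inactive = neither met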;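 note: stock transfer was 7.5 nL into about 7.5 µL; 0% = neutral wells and 100% = wells with inactivated enzyme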
Target sequence (P55789 whole entry, looked up): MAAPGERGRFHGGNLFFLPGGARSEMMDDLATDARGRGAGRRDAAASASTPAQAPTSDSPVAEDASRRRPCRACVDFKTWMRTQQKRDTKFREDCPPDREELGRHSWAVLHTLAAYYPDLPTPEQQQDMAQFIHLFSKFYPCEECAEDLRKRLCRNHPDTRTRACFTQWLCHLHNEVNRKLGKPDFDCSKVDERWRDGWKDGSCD
rRNA inh HTS OD600: second read-out of rRNA inh HTS, no call of its own (marks repeat the call); OD600 change, %; measured here: OD600 growth;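 optical density of the mix in the first replicate; 0 = DMSO median and -100 = no signal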
rRNA inh HTS RFP: also measured in rRNA inh HTS; calls as there; RFP signal change, %; measured here: RFP humanized mutant strains;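 first replicate; 0 = DMSO median and -100 = no signal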
Starred values were filed as active, the others as inactive; i = inactive; ? = inconclusive; · = no result given. These rows are one share of the data; rates above refer to the full screens.

molecule | rRNA inh HTS OD600 | rRNA inh HTS | Calb FLC | Beta cell apopt | AF4-AF9 inh | FGF22 binding | RanGTP-Impb inh | ALR H2O2 inh | rRNA inh HTS RFP | T cruzi repl
Cc1ccccc1CS(=O)(=O)c1snnc1C | · | · | 21 | -6 | · | · | -2.8 | 12 | · | -13
C#CCOCCOCCOCCNc1nc(N2CCN(C(=O)[C@H](CCCN=C(N)N)n3cc(C(N)[C@@H](C)CC)nn3)CC2)nc(N2CCN(C(=O)[C@H](CCC(=O)O)n3cc([C@@H](N)CCCCN)nn3)CC2)n1 (stereo partly drawn) | 9 | 11 | · | -1 | 16 | i | · | -3 | 3.2 | ·
Cc1c(NC(=O)c2nn3c(C(F)(F)F)cc(-c4ccccc4)nc3c2Cl)c(=O)n(-c2ccccc2)n1C | · | · | 11 | -13 | · | · | 3.9 | -7 | · | -5
CCOC(=O)N1CCN(C(=O)C2CCCN(S(=O)(=O)c3ccccc3)C2)CC1 (stereo not drawn) | · | · | -2 | 2 | · | · | 0.2 | 0 | · | -1
CC(C)Cc1cc(C(=O)Nc2ccccc2)c2ccccc2n1 | 1 | 1 | 5 | 1 | -0.9 | i | -0.8 | -10 | -8.5 | 6
N#CCNC(=O)C1c2ccccc2Oc2ccccc21 | 12 | 3 | -13 | -6 | -4.6 | i | -0.1 | · | -2.6 | -2
CC(=O)Nc1ccc(S(=O)(=O)n2nc(-c3ccc(C)cc3)nc2N)cc1 | · | · | -6 | -3 | · | · | 3.2 | -3 | · | -12
CCOC(=O)C1CCN(c2c(NCCN3CCCCC3C)c(=O)c2=O)CC1 (stereo not drawn) | 7 | -3 | 4 | 0 | -6.3 | i | 0.3 | 3 | 0.1 | -22
Cc1ccccc1C(=O)O/N=C(\N)c1ccc([N+](=O)[O-])cc1 | 2 | 5 | 3 | 0 | 6.1 | i | 3.9 | -7 | -2.2 | 7
O=S(=O)(Nc1ccccn1)c1ccc(Cl)c2ccccc12 | 7 | 5 | 26 | -25 | -1.9 | i | 6.5 | -12 | 2.0 | 0
O=c1c2c3c(sc2nc2n1CCC2)CCC3 | · | · | -5 | -8 | · | · | 3.8 | 55 | · | -2
O=C(O)CCCNS(=O)(=O)c1ccccc1 | · | · | 2 | -2 | · | · | -2.9 | -3 | · | -5
CC(C)C(NC(=O)C(NC(=O)C1O[C@@H]2OC(C)(C)O[C@@H]2[C@H]2OC(C)(C)O[C@@H]12)C(C)C)C(=O)O (stereo partly drawn) | 3 | 13 | -14 | 0 | 0.0 | i | -1.5 | 4 | -0.9 | -9
COc1ccc(CNC(=O)CN2CCN(c3ccccc3O)CC2)cc1OC | 7 | 7 | -4 | -1 | 3.4 | i | 0.0 | 23 | 2.1 | 22
CN(C)c1nc(N/N=C/c2ccccc2O)nc(Nc2ccc(F)cc2)n1 | -70 | -56 | ? | 106* | 9.2 | i | -2.6 | 1 | -19 | 28
CC(=O)OCCc1c2ccccc2c(CCCN(C)C)c2ccccc12 | -12 | 15 | -27 | · | -0.6 | i | -0.3 | -21 | 8.5 | 45
COc1cc2c3c(c1)/C(=C1/SC(=S)NC1=O)C(=O)N3C(C)(C)C=C2C | · | · | 1 | 13 | 11 | i | 1.7 | -5 | · | 10
CCOC(=O)N1CCN(Cc2nc3cc(NC(=O)CC)ccc3n2CC)CC1 | 7 | 4 | -3 | -5 | -3.3 | i | 4.3 | -3 | 0.8 | 6
Cc1csc(N(C(=O)c2ccccc2F)c2ccccc2)n1 | -2 | 13 | 42 | -1 | -1.4 | i | -0.7 | -9 | 1.5 | -3
O=C(COC(=O)CSc1ccc2ccccc2c1)NCc1ccc2c(c1)OCO2 | · | · | 3 | -6 | · | · | 1.8 | -10 | · | -2
Cc1cc(Cl)ccc1NC(=O)CN1CCN(C(=O)c2ccco2)CC1 | 3 | 3 | 2 | 4 | -3.5 | i | 2.9 | · | -2.3 | -8
CC(C)c1c(C(=O)N/N=C/c2cccc(OCc3ccccc3)c2)nnn1-c1nonc1N | -17 | -17 | 0 | -2 | -0.5 | i | 2.8 | -2 | -1.9 | -13
CCc1ccccc1NC(=O)c1cc(S(=O)(=O)N2CCc3ccccc32)cn1C | 8 | 2 | 6 | 10 | -5.3 | i | -0.8 | -17 | -2.0 | 13
O=C1c2ccccc2S(=O)(=O)c2cc(N3CCc4ccccc4C3)ccc21 | · | · | 14 | 0 | · | · | -71 | -2 | · | -7
CN(C)C/C(Cl)=C(\Cl)c1ccccc1 | · | · | · | -1 | · | · | -1.2 | -13 | · | -5
CCCCOc1ccc(NC(=O)Cn2c(=O)ccc3c(C)cc(C)nc32)cc1 | · | · | -5 | 0 | · | · | ? | -2 | · | 16
CCn1c(SCC(=O)Nc2ccc3c(c2)OCO3)nnc1-c1ccccc1O | · | · | -6 | · | · | · | 0.0 | -10 | · | -3
CCc1ccc(Nc2n[n+](C)c(-c3ccncc3)s2)cc1 | -5 | -17 | 0 | -6 | 11 | i | 0.3 | -4 | -7.8 | -11
FC(F)(F)c1nc(Oc2ccccc2)c2ccccc2n1 | · | · | 7 | 4 | · | · | 4.5 | · | · | 1
COc1ccc(C(C(=O)Nc2ccc(C(C)C)cc2)N(C)C(=O)c2ccc(=O)[nH]c2)cc1 (stereo not drawn) | 4 | 0 | 31 | · | 2.8 | · | 0.1 | -2 | -2.6 | -2
O=C(Nc1ccon1)c1sc2cc(Cl)ccc2c1Cl | 3 | 3 | 3 | 2 | -2.0 | i | 2.1 | 0 | -2.8 | -10
CC(C)c1ccc(Nc2nnc(SCC(=O)NCC3CCCO3)s2)cc1 (stereo not drawn) | -30 | -7 | · | -4 | -0.2 | i | · | 12 | -1.2 | ·
CC(Oc1cc2oc(=O)c3c(c2cc1Cl)CCC3)C(=O)N1C[C@H]2C[C@@H](C1)c1cccc(=O)n1C2 (stereo partly drawn) | · | · | 1 | 1 | 1.7 | i | 0.2 | 1 | · | -4
CCOc1ccc(OCCC(=O)OC(C)C(=O)Nc2ccc(C(C)=O)cc2)cc1 (stereo not drawn) | 14 | 11 | 7 | 3 | -0.3 | i | 3.6 | 1 | 5.7 | 8
CC(=O)Nc1ccc(S(=O)(=O)NC(C)c2nc(-c3ccccc3)no2)cc1 (stereo not drawn) | 7 | 4 | 9 | · | -1.1 | i | -2.8 | -13 | -1.0 | -3
CC1=C(C(=O)c2ccccc2)C(c2ccc(N3CCOCC3)cc2)NC(=O)N1 (stereo not drawn) | 2 | 8 | 42 | 1 | 2.5 | i | -3.7 | 35 | 4.6 | 11
CCOc1ccccc1CN1C(=O)NC2(CCCCCC2)C1=O | 7 | 4 | 24 | 3 | 1.2 | i | 3.4 | 1 | -1.3 | -2
CC(C)(C)C(=O)O/N=C(\N)c1ccc([N+](=O)[O-])s1 | -12 | 10 | 1 | 2 | · | i | -0.8 | -34 | 2.4 | 33
CC(C)OC(=O)c1ccc(COC(=O)c2cnccn2)cc1 | 2 | 12 | 8 | -4 | -0.6 | i | 1.7 | 6 | -1.0 | -2
Nc1ncnc(Sc2ncccn2)c1[N+](=O)[O-] | 20 | 0 | 85* | · | -5.2 | i | -0.1 | · | -1.2 | 37
O=C(Nc1nnc(COc2ccc(Cl)cc2)s1)c1cccs1 | · | · | -2 | 1 | · | · | -0.9 | -2 | · | 0
O=C(c1ccccc1F)N1CCN(S(=O)(=O)c2ccc3c(c2)OCCO3)CC1 | 0 | 4 | -3 | -7 | -1.2 | i | -0.9 | -11 | 0.1 | 1
Cc1cc(C)cc(NS(=O)(=O)c2cc(C(=O)NCc3ccccn3)ccc2Cl)c1 | 8.8* | -20* | -22 | -5 | 11 | i | 3.2 | -14 | 6.0* | -3
CCOC(=O)N1CCN(C(=O)CSc2nnc3[nH]c(=O)c(C)c(C)n23)CC1 | 6 | 0 | 1 | · | 0.6 | i | -2.1 | 3 | -2.4 | -13
COc1ccc(N(CC(=O)Nc2ccccc2OC)S(=O)(=O)c2ccc(OC)c(OC)c2)cc1 | -7 | -9 | 12 | 2 | -0.7 | i | 7.4 | -13 | 1.2 | -6
Cc1nnc(NC(=O)c2ccc3c(c2)NC(=O)CS3)s1 | 15 | 3 | · | -4 | 1.7 | i | · | -3 | -0.3 | ·
CCN(CC)CCOC(=O)c1ccc(NC(=O)CCCN2C(=O)/C(=C\c3cccs3)SC2=S)cc1 | -19* | -27* | -2 | -1 | 12 | i | 4.5 | -4 | 4.2* | 46
NS(=O)(=O)c1cc(C(=O)OCC(=O)Nc2ccc(Cl)cc2[N+](=O)[O-])ccc1Cl | 8 | 11 | ? | -7 | -1.9 | i | · | -3 | 0.7 | -8
COc1cccc(NC(=O)CCc2nnc3ccc(NCc4ccco4)nn23)c1 | -1 | -1 | -4 | 0 | 2.7 | i | 1.8 | 3 | 1.1 | -7
C=CC[C@@]12C=C(OC)C(=O)C(OC)=C1O[C@H](c1ccc3c(c1)OCO3)[C@H]2C | 6 | 0 | 8 | 4 | -0.8 | i | -0.4 | -25 | -11 | -9
O=C(c1ccc2nc(Cc3cccc(Cl)c3)oc2c1)N1CCC(O)CC1 | 2 | 1 | -9 | -5 | 0.1 | i | -3.8 | 0 | -0.9 | -11
CSc1cccc(NC(=O)Nc2ccc(Cl)cc2)c1 | · | · | -8 | 17 | · | · | -4.0 | -15 | · | 15
O=S(=O)(NC1CC1)c1ccc(S(=O)(=O)N2CCCC(c3nc(-c4cccnc4)no3)C2)cc1 (stereo not drawn) | · | · | -3 | 1 | · | · | 1.7 | · | · | 21
Fc1ccc(NC(=S)NCc2ccccc2)cc1 | 9 | 3 | -2 | 1 | -4.9 | i | -1.7 | · | -2.5 | -5
N#CC(c1ccc(O)cc1)c1ncc(C(F)(F)F)cc1Cl (stereo not drawn) | 20 | 12 | 22 | -1 | -0.7 | i | -0.9 | 3 | 1.2 | -3
O=C(O)c1cc(Cl)c2ccccc2c1O | · | · | 16 | 0 | · | · | ? | -36 | · | -6
CC(C)N1CCC2(CC1)C(C#N)=C(N)NC(S)=C2C#N | · | · | 11 | 0 | · | · | -5.3 | -6 | · | -17
CC(=O)N1CCc2c(sc(NC(=O)CCS(=O)(=O)c3ccccc3)c2C(N)=O)C1 | 4 | 4 | 5 | -9 | -3.2 | i | 7.1 | -22 | 2.8 | -3
Cc1nnc2sc(SCc3ccc(Cl)cc3)nn2c1=O | · | · | 9 | 3 | · | · | -0.1 | · | · | -3
